# NPYLR7 agonist: agonists of mosquito NPYLR7 receptor, primary screen, cell-based, Aedes aegypti, calcium fluorescence, mosquito biting behavior. Aedes aegypti neuropeptide Y-like receptor 7 (NPYLR7). HEK293T NPYLR7/Galpha15, GCaMP6s calcium fluorescence. activation, % at 10 µM. 270,000 tested, 0.15% active. AID 1259423, 2018; in the data active means activation above about 40%;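 further: 0% = vehicle and 100% = reference agonist at the receptor; some compounds past the cut are filed as inactive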
# NPYLR7 agonist max-min: recorded beside NPYLR7 agonist, whose call it bears; activation, %; measured here: Max-Min RFU normalised activation; some inactives read as strong as hits;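 span of the calcium signal over five minutes; 0% = vehicle and 100% = native peptide agonist; compound fluorescence can raise it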
# An asterisk follows results filed as active; & = joins results of further samples. A portion of the library; the hit share may differ from the screen's.
# Each structure is followed by: NPYLR7 agonist | NPYLR7 agonist max-min
> COc1ccc(S(=O)(=O)N2CCCC(C)C2)cc1N1CCN(C(=O)c2ccc(C#N)cc2)CC1 (configuration not stated)
→ 4 | 3
> c1ccc(CNc2ncc(CN3CCCN4CCC[C@H]4C3)cn2)cc1
→ 10 | 6
> O=C1NC2(CCN(C(=O)c3cccc(Br)c3)CC2)Nc2cccc(Cl)c21
→ 0 | 6
> O=C(c1nc2sccn2c1CN1CC(O)C1)N1CCCCC1
→ 23 | 20
> CN(CCC#N)C(=O)CN(CC(O)c1ccccc1)CC(C)(C)C (configuration not stated)
→ 5 | 5
> CCCC(NC(=O)c1ccc2c(c1)nnn2C)c1cccs1 (configuration not stated)
→ 8 | 0
> CCCOc1ccc2nc(NC(=O)OC)sc2c1
→ -19 | -27
> Cc1cc(C)nc(CCNC(=O)c2ccc3nc(Cc4cccc(Cl)c4)oc3c2)n1
→ 16 | 8
> Cc1ccc2nc(NC(=O)CSc3nc(=O)n(CCN4CCOCC4)c4c3CCCC4)sc2c1
→ -3 | 5
> Cc1cnc(CNC(=O)c2cccc(NCc3ccccn3)c2C)cn1
→ -9 | -10
> O=C(CN1CCSC1=O)Nc1c(-c2ccccc2)nc2sccn12
→ 9 | 9
> CCc1ccc(NC2=NC(c3cccnc3)n3c(nc(C)cc3=O)N2)cc1 (configuration not stated)
→ 35 | 33
> Cc1ccc2nnc(-c3ccccc3C(=O)O)n2n1
→ -8 | 638
> CCOc1ccc(C(=O)NC2(c3ccccc3)CCC2)cn1
→ 0 | 1
> Cc1ccc(-c2c(C)oc(C)c2C(=O)N[C@@H]2C[C@H]3CC[C@@H]2C3)cc1
→ 1 | 0
> COc1ccc(N2C(=O)CSC2c2cccc(NC(=O)c3cccc(F)c3)c2)cc1 (configuration not stated)
→ -6 | 0
> Cc1c(C(C)NC(=O)N2CCC(C(N)=O)CC2)sc2ccccc12 (configuration not stated)
→ -3 | -3
> CCCC(=O)NNC(=O)c1cc(C)[nH]n1
→ 1 | -1
> Cc1cc(C)cc(OCC(=O)N2CCC(C(=O)Nc3ccc4c(c3)OCO4)CC2)c1
→ -1 | 1
> O=C1NCCCCC1SC1=N/C(=C\c2ccccc2)C(=O)N1c1ccc(F)cc1 (configuration not stated)
→ 3 | 2
> Cc1ccccc1CCNC(=O)COn1nnc2ccc(Cl)cc21
→ -1 | -2
> COc1ccc(OCC2CCCN(C(=O)c3cn(C4CCCCC4)nn3)C2)cc1 (configuration not stated)
→ 5 | 0
> Oc1ccccc1-c1nncn1-c1ccccc1
→ -5 | -5
> O=S(=O)(c1cc(Cl)ccc1Cl)n1nnc2ccccc21
→ 15 | 13
> Cc1cc(C)n(CCN(C(=O)c2ccco2)c2nc3c(F)cc(F)cc3s2)n1
→ -17 | -21
> COc1ccc(OC)c(C2c3cccn3-c3ccccc3N2C(=O)CN(C(=O)Nc2ccc(F)cc2F)C2CC2)c1 (configuration not stated)
→ 1 | 4
> CC(O)Cn1ccnc1-c1ccc2cccc(F)c2n1 (configuration not stated)
→ 6 | 4
> COc1ccc(Cl)cc1NC(=O)NCCn1ncccc1=O
→ -10 | -20
> CCC1CN(Cc2nc(C)n3ccccc23)CCN1C(C)C (configuration not stated)
→ 14 | 5
> Cc1nc(C)c(C(=O)NCCn2ncc3c(N4CCCC4)ncnc32)s1
→ 4 | 1
> Cc1nc2c(=O)n(CC(=O)c3ccccc3)nc(-c3ccco3)c2s1
→ 1 | -1
> Cc1ccc(NC2SC(=O)N(CC(C)C)C2=O)c(C)c1 (configuration not stated)
→ 15 | 12
> O=S(=O)(c1ccccc1N1CCC(c2nncn2C2CC2)CC1)C(F)(F)F
→ 2 | 0
> CCn1c(N2CCN(Cc3ccccc3)CC2)nc2c1c(=O)[nH]c(=O)n2C
→ -4 | -6
> CCCCC(=O)Nc1nnc(SCc2ccc(OC)cc2)s1
→ -4 | -1
> CCOP(=O)(OCC)C(Nc1ccccc1)c1ccccc1F (configuration not stated)
→ -7 | -5
> COc1ccc(CCN2CC(NC(=O)NC3CCCCC3)CC2=O)cc1 (configuration not stated)
→ 3 | 0
> Cc1c(C(=O)NCCN2CCCC(O)C2)oc2c(F)cccc12 (configuration not stated)
→ 13 | 7
> CCc1ccc(CN2CCN(c3nc4ccccc4n3CCO)CC2)nc1
→ -3 | -2
> OCc1ccc(CN(Cc2ccsc2)Cc2ccco2)o1
→ 2 | -3
> CCCCS(=O)(=O)N1CCN(c2c(CC(=O)OCC)c(C)nc3ncnn23)CC1
→ -2 | -9
> CCn1c(SCC(=O)N2CC(=O)Nc3ccccc32)nc2ccccc21
→ -5 | -4
> Cc1ccc(-n2ncc3c(=O)n(NC(=O)c4ccc(Br)o4)cnc32)cc1C
→ 6 | 4
> Cc1ccc(C(C)CCN2CCC(n3nccc3NC(=O)Cc3ccccc3)CC2)o1 (configuration not stated)
→ 8 | 4
> COc1ccc(CN(CC(O)COc2ccc(Cl)cc2)CC2CCCO2)cc1OC (configuration not stated)
→ 5 | 7
> COCC(NC(=O)c1sc(C)nc1C)c1ccnn1C (configuration not stated)
→ 9 | 8
> COCCN1C(=O)CC(CC(=O)N2CCCC(c3nc4ccccc4[nH]3)C2)(c2ccccc2F)C1=O (configuration not stated)
→ 18 | 8
> Cc1noc(-c2ccncc2)c1C(=O)NCc1cccs1
→ -3 | 1
> Cc1cc(C(F)(F)F)nn1CC(=O)NCCCn1ccnc1
→ 1 | 1
> COCC(C)NC(=O)c1cc(-c2ccc(OC)cc2)nc2c1c(C)nn2C1CCS(=O)(=O)C1 (configuration not stated)
→ 1 | 6
> COc1cccc(CC2=NOC(C(=O)NCc3cccc(F)c3F)C2)c1 (configuration not stated)
→ 19 | 4
> COc1cccc(C2CC(c3cccc(C)c3)=NN2C(=O)CN2CCc3ccccc3C2)c1 (configuration not stated)
→ 23 | 22
> O=C(c1ccc(-c2ccn[nH]2)cc1)N1C[C@H]2C[C@H](O)[C@@H](O)C[C@H]2C1
→ 7 | 4
> CC(NS(=O)(=O)c1cc(Cl)cc(Cl)c1)c1ccc(-n2ccnc2)cc1 (configuration not stated)
→ 2 | 5
> O=c1oc2ccc(Cl)cc2cc1-c1nnc(-c2ccc([N+](=O)[O-])cc2)o1
→ -5 | -11
> O=C(CSCc1ccco1)c1ccccc1Cl
→ 6 | 3
> Nc1sc2c(c1-c1nc3ccccc3s1)CCCC2
→ 3 | 3
> Cc1sc(-n2c(C)ccc2C)c(C(=O)NCC2CCCO2)c1C (configuration not stated)
→ -2 | -2
> CNC(=O)Cc1ccccc1NS(=O)(=O)c1ccc(Br)cc1
→ -2 | -1
> CCc1nc2ccc(C(=O)N3CCN(C(C)=O)CC3)cn2c1N(C)Cc1ccc(Cl)cc1
→ -1 | 14

# (cont.)
# Each structure is followed by: NPYLR7 agonist | NPYLR7 agonist max-min
> C=CCNC(=O)COC(=O)C1C(C(=O)OCC)=C(C)NC(C)=C1C(=O)OCC
→ -1 | -2
> O=C1c2ccc(-c3nc4ccccc4c(=O)o3)cc2C(=O)N1c1ccccc1-c1ccccc1
→ -3 | -8
> CCOc1ccc(CCNC(=O)c2nnn(CC(=O)Nc3cc(C)cc(C)c3)c2N)cc1OCC
→ -5 | -9
> COCC1CCN(C(=O)c2cc(COc3ccc(OC)cc3Cl)on2)C1 (configuration not stated)
→ 3 | 2
> COc1ccc(OC)c2[nH]c(=O)[nH]c12
→ 1 | 5
> COC(=O)c1ccc(C=NNC(=O)CCn2cnc3ccccc32)cc1
→ 1 | -3
> Nc1c(C(=O)CSc2nnc(C3CCS(=O)(=O)C3)o2)c(=O)[nH]c(=O)n1C1CC1 (configuration not stated)
→ 5 | 14
> O=C(NCCOc1ccc2nnc(-c3ccccc3)n2n1)c1cccs1
→ -10 | -15
> Cc1ccc(-n2nc(C)c3c(=O)cc(C)[nH]c32)c(C)c1
→ 4 | 3
> NC(N)=NN=CC(Cl)=Cc1ccccc1
→ 12 | 9
> CCNC(=O)C1(C)CCN(Cc2cccc3ccccc23)C1 (configuration not stated)
→ 0 | 0
> CCCc1ccccc1N1C(=O)CSC1c1cccc(NC(=O)c2ccco2)c1 (configuration not stated)
→ 1 | 11
> OCCN1CCN(Cc2nc3c(F)cccc3[nH]2)CC1
→ 1 | -2
> CCc1c(C)sc(NC(=S)Nc2cnn(CC)c2C(N)=O)c1C(=O)OC
→ -10 | -19
> Cc1c(C)n2c3c(=O)n(Cc4ccccc4)c(=O)n(C)c3nc2n1C1CCCC1
→ 9 | 9
> Cc1nn(CC(=O)N2CCC(C)CC2)c(=O)c(C#N)c1C
→ 8 | 13
> Cc1nn(-c2ccc(F)cc2)c(C)c1CN1CCCC(N2CCOCC2)C1 (configuration not stated)
→ 21 | 10
> Cc1c(Cl)c(C(=O)N2CCC(O)(CN(C)C)C2)nn1C (configuration not stated)
→ 4 | 5
> CN1N=C(C(=O)OCc2cccc(C(F)(F)F)c2)CCC1=O
→ 0 | 5
> CC1CN2C(=O)CN(C(=O)Nc3cccc(C(F)(F)F)c3F)CC2c2ccccc21 (configuration not stated)
→ 0 | 4
> CC(CNC(=O)NC1CCCC(C(F)(F)F)C1)N1CCc2ccccc2C1 (configuration not stated)
→ 0 | 0
> CC(C)NC(=O)NCc1ccc(NC(=O)c2cc(C(F)(F)F)cc(C(F)(F)F)c2)cc1
→ 0 | -5
> N#Cc1ccccc1CN1CCC(Oc2ccccn2)CC1
→ -4 | 11
> C=CCNC(=O)N1[C@@H](c2ccccc2)[C@@H](C(=O)NC)C[C@]12CCCCN(CCOC)C2=O
→ -1 | 4
> CC(C)CN1CCC(C(=O)N(C)C(c2ccc(F)cc2)c2ccccn2)CC1 (configuration not stated)
→ 4 | -4
> CCOC(=O)c1ccc(NC(C)c2ccc3c(c2)CCC(=O)N3)nc1 (configuration not stated)
→ 16 | 11
> c1ccc(Cc2nc(C3CCCN(Cc4ccco4)C3)n[nH]2)cc1 (configuration not stated)
→ 1&3 | 0&3
> COc1cccc(-n2nnc3c(=O)n(CC(=O)N4CCc5ccccc54)cnc32)c1
→ 9 | 10
> O=S1(=O)CCC(NCc2cc(Cl)ccc2OCc2cccnc2)C1 (configuration not stated)
→ 5 | 4
> Cc1ccc(SC2CCN(Cc3nc(Cc4ccccc4F)no3)CC2)cc1
→ 3 | 2
> COc1ccc2c(=O)c(-c3ccccc3Cl)c(C(F)(F)F)oc2c1OC
→ -1 | -5
> Cc1ccc(-c2nc3cc(C)ccn3c2NC(=O)c2cccc(Cl)c2)cc1
→ -4 | 3
> Fc1ccc(Nc2nc3ccccc3n3nnnc23)cc1
→ 9 | -1
> CCOC(=O)C1(CCOC)CCCN(Cc2cnc(SC)nc2)C1 (configuration not stated)
→ 5 | 4
> Cc1cc(C)c(CNC(=O)N2CCCC(N3CCCC3=O)C2)c(C)c1 (configuration not stated)
→ 7 | 4
> Cc1ccc2nccc(C(=O)N3CCCC(Nc4ccc(C)c(C)c4)C3)c2c1 (configuration not stated)
→ 24 | 13
> COc1ccc(S(=O)(=O)NC(=O)C2(C)CCN2C(=O)COc2ccc(Cl)cc2)cc1 (configuration not stated)
→ 4 | 5
> O=S(=O)(NCCc1nc(Cc2ccccc2)no1)NCc1ccccc1
→ -1 | 2
> CS(=O)(=O)C(C#N)=Cc1cccc(Cl)c1Cl
→ 20 | 8
> COc1cc(-c2cc(NCc3ccccn3)nc3[nH]ccc23)ccc1O
→ -2 | -8
> COc1ccc(N2CCN(Cc3cnc(N4CCCC4)nc3)C(C)C2)cc1 (configuration not stated)
→ 1 | -1
> CCCn1ccnc1-c1c(-c2ccccc2)ncn1Cc1c(C)noc1C
→ 4 | 1
> CCSc1nnc(NC(=O)c2ccc(=O)n(C)n2)s1
→ -2 | -5
> COc1ccc2nc(-n3nc(C)cc3NC(=O)c3cc(Cl)sc3Cl)sc2c1
→ -10 | -15
> CN1CCCNC(=O)C12CCN(Cc1cnc[nH]1)CC2
→ 6 | 4

# Single records, from the list above. Order of screens: NPYLR7 agonist, NPYLR7 agonist max-min
# Cc1ccc2nccc(C(=O)N3CCCC(Nc4ccc(C)c(C)c4)C3)c2c1 (configuration not stated) across the screens: 24, 13
# CN1CCCNC(=O)C12CCN(Cc1cnc[nH]1)CC2 across the screens: 6, 4
# COc1ccc2c(=O)c(-c3ccccc3Cl)c(C(F)(F)F)oc2c1OC across the screens: -1, -5
# CCSc1nnc(NC(=O)c2ccc(=O)n(C)n2)s1 across the screens: -2, -5

# Continued:
# Each structure is followed by: NPYLR7 agonist | NPYLR7 agonist max-min
> c1ccc(C[n+]2cn3cc(-c4ccccc4)nc3[nH]2)cc1
→ 2 | 1
> O=C(CCN1CCN(c2ccccn2)CC1)Nc1ccccc1
→ 8 | 9
> O=C(c1ccc(Br)cc1)N1CCSC12CCN(S(=O)(=O)c1ccccc1)CC2
→ 13 | 20
> COCCN(Cc1nccn1Cc1ccc(F)cc1)C(=O)C1CC1
→ 18 | 27
> CCOc1ccc(C(C2Sc3nc(C)nn3C2=O)N2CCC(C)CC2)cc1 (configuration not stated)
→ -1 | -1
> Cn1c(C2C(=N)N(NC(=O)c3ccccc3)CC2=O)[n+](C)c2ccccc21 (configuration not stated)
→ 4 | 12
> CCc1nc(-n2ccc3c(cnc4c(-c5ccc(F)cc5)c(C)nn43)c2=O)n[nH]1
→ 2 | 3
> COc1ccccc1OCCn1c(SCC(=O)c2ccc(Br)cc2)nc2ccccc21
→ -3 | 7
> COc1ccc(CCN(Cc2ccc(C)o2)C(=O)CN(C(=O)c2cccs2)C2CC2)cc1OC
→ -2 | 0
> CCNC(=O)[C@@]1(OCc2ccccc2C)CC(OCc2ccc(C(F)(F)F)cc2)[C@H](O)[C@H](O)C1 (some centres not stated)
→ 5 | 7
> Cc1cc(C)c(C(=O)N2CCCC(CNS(=O)(=O)c3cccs3)C2)o1 (configuration not stated)
→ 2&0 | -1&-4
> C=CCN(c1nc(-c2ccc(OC)cc2)ncc1C(=O)OCC)[C@@H](C)c1ccccc1
→ -6 | -10
> CC(C)(O)C#Cc1cccc(C(=O)NCC2OCCc3ccccc32)c1 (configuration not stated)
→ 2 | 3
> CCc1c(C)cc(C(=O)N2CCC3(CCNC(=O)CC3)CC2)c(=O)n1C
→ -1 | -3
> CCn1cccc(-c2nnc(SCC(=O)c3ccc(Cl)cc3)n2C)c1=O
→ 3 | 3

# Screening data as filed in PubChem.
